# Screening results from PubChem BioAssay.
# Sa helicase inh – inhibitors of S. aureus replicative helicase, primary screen, biochemical, fluorescence unwinding readout; replicative DNA helicase (DnaC/DnaB), Staphylococcus aureus; purified S. aureus helicase, fluorescence unwinding assay; about half of the hits fall short of the stated cut; inhibition, %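 (tested at about 80 µM)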; 120,000 tested, 0.05% active;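 active = both duplicates at 50% or more, or one of them with a favoured structure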;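 also: 0% = mean of negative control wells and 100% = mean of positive control wells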
# MgrA-DNA mod – S. aureus MgrA activity modulators, primary screen, biochemical, S. aureus Newman, fluorescence polarization; MgrA-DNA binding; inhibition, %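 (about 10 µg/mL by stock and volumes)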; 84,000 tested, 0.13% active; AID 602314, 2012;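 active = above 50% in either of two replicates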;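 also: 0% = protein plus DNA without compound and 100% = DNA alone without protein; higher means less MgrA bound to DNA so lower polarization; one replicate is shown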
# * marks the source's active call; other numbers are inactive results; . = no result given; & = joins results of further samples. This is a subset; rates above refer to the full screens.
# Every second line gives: MgrA-DNA mod	Sa helicase inh
OC(CCl)CN1CCN(c2cccc(C(F)(F)F)c2)CC1 (stereo not drawn)
→ -4.7	.
O=C(NC(C(=O)c1ccccc1)n1cnccc1=O)c1ccccc1 (stereo not drawn)
→ -1.1	.
O=C1OC(c2ccccc2)=N/C1=C\N1CCCCC1
→ 1.4	14
CNc1ccc2c(c1)OCCO2
→ -8.8	9
CCSc1nnc2c3ccccc3ncn12
→ .	12
CNC(=S)NCc1ccc(Cl)cc1
→ -1.5	11
O=C(CC1(O)C(=O)N(CN2CCOCC2)c2ccccc21)c1ccccc1 (stereo not drawn)
→ 0.4	-12
Fc1nc(N2CCOCC2)c2c(c1Cl)Oc1ccccc1O2
→ 1.1	8
Nc1cccc(/C=C/C(=O)O)c1
→ -3.6	-10
Cc1cc(C)c2c3c(sc2n1)C1(CCSCC1)C(C#N)=C(N)O3
→ -0.9	20
Cc1nc(-c2cc(Cl)c(Cl)s2)cs1
→ -2.0	.
CCC(=O)c1ccc(SC(=O)N(C)C)cc1O
→ -2.9	.
CN(Cc1ccco1)C(=O)C1CCCN1S(=O)(=O)c1cccc2nsnc12 (stereo not drawn)
→ 2.5	15
Cn1c(/C=C/N2CCOCC2)c(C(=O)c2ccc(Br)cc2)c(=O)n(C)c1=O
→ -1.9	15
O=C(O)c1ccccc1N(Cc1ccccc1)C(=O)c1cccs1
→ -2.5	-17
CCC(=O)NC(c1ccco1)c1c(OC(C)=O)ccc2ccccc12 (stereo not drawn)
→ 2.9	4
CSc1nc2ccccc2n1CC(=O)N(c1ccccc1)C(C)C
→ -1.0	-16
Fc1cccc(-c2nc(-c3ccccc3)no2)c1
→ -7.1	5
Cc1ccc(C)n1-c1ccc(-c2nnco2)cc1
→ .	11
CS(=O)(=O)CS(=O)(=O)Nc1cc(Cl)cc(Cl)c1
→ -3.5	.

# Record cards, as listed above. Order of screens: MgrA-DNA mod, Sa helicase inh
# Cc1nc(-c2cc(Cl)c(Cl)s2)cs1 across the screens: -2.0, .
# CCC(=O)NC(c1ccco1)c1c(OC(C)=O)ccc2ccccc12 (stereo not drawn) across the screens: 2.9, 4
# CS(=O)(=O)CS(=O)(=O)Nc1cc(Cl)cc(Cl)c1 across the screens: -3.5, .
# CCC(=O)c1ccc(SC(=O)N(C)C)cc1O across the screens: -2.9, .
# Cc1cc(C)c2c3c(sc2n1)C1(CCSCC1)C(C#N)=C(N)O3 across the screens: -0.9, 20

# Copied from the list:
# Reading of `CNC(=S)NCc1ccc(Cl)cc1` in MgrA-DNA mod: -1.5
# Reading of `Cc1nc(-c2cc(Cl)c(Cl)s2)cs1` in MgrA-DNA mod: -2.0

# The listing continues:
# Every second line gives: MgrA-DNA mod	Sa helicase inh
C=C(c1ccccc1O)n1ccnc1
→ -1.0	.
CCOc1ccc(-n2cnnn2)cc1S(=O)(=O)NC1CC1
→ -0.7	4
O=c1c2[nH]c3ccccc3c2ncn1CCN1CCN(Cc2ccccc2)CC1
→ .	11
CC(C)c1ccc(NC(=S)NCCC(=O)O)cc1
→ 1.8	.
Nc1nc2ccccc2o1
→ .	-43
Cc1c(/C=C2\SC(=Nc3ccccc3)N(C3CCCC3)C2=O)c2ccccc2n1CC(N)=O
→ -2.1	-4
C=C1CCC(O)C2(C)CCC3C(C)C(=O)OC3C12O (stereo not drawn)
→ .	-6
O=C(CSc1nnc(-c2cccs2)n1Cc1ccco1)Nc1ccc2c(c1)OCO2
→ 0.0	10
O=C(NC(OCc1ccccc1)(C(F)(F)F)C(F)(F)F)c1ccccc1
→ -1.3	.
OCCCNc1ncnc2c1c(-c1ccccc1)cn2-c1ccccc1
→ .	5
Cc1ccc(-n2nc3c([n+]2[O-])CCc2nonc2-3)cc1
→ -2.1	12
O=C(/C=C1\OC(=O)c2ccccc21)Oc1cccc(C(F)(F)F)c1
→ 17	.
O=S(=O)(Nc1ccccc1)c1cccc2cccnc12
→ 0.0	2
CCC(=O)Nc1ccc(NC(=O)c2ccc(-c3ccc(Cl)cc3)o2)cc1
→ .	23
c1ccc2nc(Sc3ncn[nH]3)c(Sc3ncn[nH]3)nc2c1
→ 1.7	8
O=C1c2cccc3cccc(c23)N1CO
→ .	-6
Cc1cc(/C=N/NC(=O)C(C)Oc2ccc(C#N)cc2)c(C)n1-c1nccs1 (stereo not drawn)
→ .	-10
CCCCn1c(-c2ccc(OCC)cc2)cnc1NCc1cccc(Cl)c1
→ -4.2	8
CNc1cccc(-c2ccc3nnc(C)n3n2)c1
→ -1.9	.
COC(=O)C1(c2ccccc2)NC(c2ccc(O)cc2)C2C(=O)N(c3ccc4c(c3)OCCO4)C(=O)C21 (stereo not drawn)
→ -1.2	9

# Continuation.
# Every second line gives: MgrA-DNA mod	Sa helicase inh
CC1=NN(C(=O)c2ccc(Cl)cc2)C(C)(C)C1
→ 0.7	13
CC(=O)Nc1ccc(-c2csc(N)n2)cc1
→ -4.3	6
CCOC(=O)N1CCC(NC(=O)c2cc(C(=O)Nc3ccc(F)cc3F)ccc2CO)CC1
→ .	-23
CCOC(=O)/C(C#N)=N/Nc1cc(C(N)=O)c(Cl)cc1Cl
→ 3.7	-2
CCN1C(=O)c2ccc(-c3nc4ccccc4c(=O)o3)cc2C1=O
→ .	1
CSc1sc(C(=O)N(C)C)c2c1S(=O)(=O)N(C)c1ccccc1-2
→ -2.0	.
COCC(C)Nc1nc(-c2ccc(OC)c(OC)c2)cs1 (stereo not drawn)
→ .	-7
COC(=O)c1cn(CC(=O)NCc2ccc3c(c2)OCO3)c2ccccc12
→ 1.0	-12
O=C(NCc1ccc(Cl)cc1)c1ccc2c(c1)N(Cc1cccc(F)c1)C(=O)CS2=O (stereo not drawn)
→ -1.6	10
O=C1S/C(=C\c2ccc3c(c2)OCO3)C(=O)N1Cc1ccc(F)cc1
→ .	-3
Cc1ccc2nc(N(CCN(C)C)C(=O)c3ccco3)sc2c1
→ -1.8	2
CCN1CCCC(N)C1 (stereo not drawn)
→ -1.1	8
O=c1[nH]c(=O)n(CCCO)c(O)c1N=Nc1c(Cl)cccc1Cl
→ .	23
COCC(=O)Nc1ccc(S(=O)(=O)NC(C)(C)C)cc1
→ 1.2	3
CC1=NOC(=O)/C1=C\c1ccccc1
→ 5.0	.
Cc1cc(C)c(-n2nnnc2SCC(=O)Nc2nn(-c3ccccc3)nc2C(N)=O)c(C)c1
→ -2.2	3
CCOC(=O)CCc1c(C)nc2ccc(Br)cn2c1=O
→ -2.1	7
Cc1ccc(C(=O)NNC(=O)c2ccncc2)c(C)c1
→ -1.5	.
COc1ccc(CCNc2nc3c(c(=O)n(C)c(=O)n3C)n2Cc2cccc(Br)c2)cc1OC
→ 3.9	.
CC1Oc2ccccc2C=C1/C=C(\NC(=O)c1ccccc1)C(=O)N1CCOCC1 (stereo not drawn)
→ .	19

# (next part)
# Every second line gives: MgrA-DNA mod	Sa helicase inh
COc1ccccc1Oc1ccc(N/C=C/C(=O)c2ccc(C)o2)cc1
→ 0.1	13
Clc1ccc2c(c1)NC(c1ccccc1Cl)O2 (stereo not drawn)
→ 0.2	.
CCCNC(=O)Nc1ccc(-n2nc(C(F)(F)F)cc2C(F)(F)F)cc1
→ -0.7	.
CCOC=C(C#N)C#N
→ .	-1
COC(=O)c1ccc(CNC(=O)CSC2=NCCS2)cc1
→ .	-4
Cc1cccc(NC(=S)N2CCn3cccc3C2c2cccs2)c1 (stereo not drawn)
→ 5.0	10
CC1CN(C2CCCCC2)CCC1=O (stereo not drawn)
→ .	7
CCN(CC)CCCNc1nnc(Cc2cccnc2)c2ccccc12
→ .	6
O=C(NCc1ccc(Cl)cc1)C1CCC(CNS(=O)(=O)c2ccc(Cl)cc2)CC1 (stereo not drawn)
→ -1.6	1
COC(=O)c1cnc(NC2CCCCC2)c2ccccc12
→ .	-4
CN=C1NC(=O)CC(C(=O)Nc2ccc3ccccc3c2)S1 (stereo not drawn)
→ 1.9	15
O=S1(=O)N=C2CCCCCN2C(c2ccccc2OCc2ccccc2)N1 (stereo not drawn)
→ .	15
O=C(NCC1CCCO1)c1cccc2c1OCCCO2 (stereo not drawn)
→ -2.0	.
O=S(=O)(NCCc1cn2ccccc2n1)c1ccc2c(c1)CCCC2
→ -1.3	4
CCC(C)NC(=O)C1CCCN(S(=O)(=O)N2CCC(C)CC2)C1 (stereo not drawn)
→ 0.3	6
CCN(CC)C(=O)c1ccc(Oc2ccc(C(=O)N(CC)CC)cc2)cc1
→ .	-15
CCOC(=O)c1cc(CC)sc1NC(=S)Nc1ccccc1C(F)(F)F
→ 1.4	.
CCN(C(=O)c1cnc2ccccn2c1=O)c1ccccc1C
→ 1.7	13
Cc1cc(-c2ccccc2)[n+]2nc(N)sc2n1
→ -1.4	-10
CCCCOc1ccc(C2(C)NC(=O)N(C)C2=O)cc1 (stereo not drawn)
→ 1.4	-1

# (cont.)
# Every second line gives: MgrA-DNA mod	Sa helicase inh
O=C(Nc1ccc(Br)cc1)c1cc(-c2ccc(F)cc2)on1
→ .	16
Cc1ccc(SC(C)C(=O)Nn2cnnc2)cc1 (stereo not drawn)
→ 5.9	6
CSc1ccccc1NC(=O)CN1CCC(C)CC1
→ .	30
COc1ccc(CCN2COc3c(cc4c(-c5ccccc5)cc(=O)oc4c3C)C2)cc1
→ 1.4	6
CCOC(=O)C1CCN(C(=O)CCCCn2c(=O)[nH]c3ccccc3c2=O)CC1
→ .	17
Cc1cc(Cl)nc(Cl)c1C(=O)NC(=O)NC(C)(C)C
→ -6.0	10
COC(=O)c1cc([N+](=O)[O-])ccc1Sc1ccc(Cl)cc1
→ -1.0	.
Cc1cc(COC(=O)c2ccc(C#N)cc2)no1
→ .	4
S=C(N=P(c1ccccc1)(N1CCOCC1)N1CCOCC1)N1CCN(c2ccccc2)CC1
→ .	-6
O=C(CSCc1nc2ccccc2[nH]1)N1CCOCC1
→ -0.7	-15
Cc1nc(Cc2nnc(SCC(=O)NCC34CC5CC(CC(C5)C3)C4)o2)cs1
→ .	4
CC1CCN(c2ccc([N+](=O)[O-])c(Oc3nc4c(Cl)cc(Cl)cc4s3)c2)CC1
→ -1.3	.
COc1nc(OC)nc(-n2cnc(NC(=O)Nc3cccc(Cl)c3)n2)n1
→ -3.8	9
C=CCN1C(=O)c2ccc(C(=O)OCc3ncc(-c4ccccc4)o3)cc2C1=O
→ .	-3
CCCCOC(=O)c1ccccc1Nc1ccn2c(=O)c3ccccc3nc2n1
→ .	10
Cc1nc2ccccc2n1CC(=O)N1CC(=O)Nc2ccccc21
→ .	-8
C/C(N)=N/S(=O)(=O)c1cc(C(F)(F)F)cc(C(F)(F)F)c1
→ -1.4	.
COCC(=O)Nc1c(C(=O)Nc2ccc(C)c(C)c2)oc2ccccc12
→ .	10
CCC(=O)N(CCC(c1ccco1)c1ccccc1OC)Cc1cccs1 (stereo not drawn)
→ .	-32
CCc1ccc(NC(=O)c2nc(S(C)(=O)=O)ncc2N(Cc2ccc(C)cc2)Cc2ccco2)cc1
→ .	-16

# More records.
# Every second line gives: MgrA-DNA mod	Sa helicase inh
O=C(Nc1ccc(Cl)c(Cl)c1)NC1CCCCC1
→ -1.4	12
Cc1oc(-c2ccccc2)nc1CS(=O)CC(=O)N1CCc2ccccc21 (stereo not drawn)
→ .	11
CC(NC(=O)c1ccccc1)c1nc2ccccc2n1C(C)C (stereo not drawn)
→ .	-1
COc1cc2c(cc1OC)C(c1ccccc1)N(C(=O)CSc1nc3ccccc3o1)CC2 (stereo not drawn)
→ 0.1	7
C(=Nc1cccc2ccccc12)c1c[nH]c2ccccc12
→ -0.2	5
Cn1cnnc1SCc1cc(=O)c(OCc2cccc(F)c2)co1
→ .	-6
N#CC(C(=O)COc1ccccc1)c1ccccc1 (stereo not drawn)
→ 24	11
CC(C)CNC(=O)Cn1nc(C(F)(F)F)c2c1CCCC2
→ .	-18
Cc1ccc(CNC(=O)CCSCc2ccc(C)cc2)cc1
→ -0.2	6
NC(=O)COC(=O)c1ccccc1OCc1ccc(F)cc1
→ .	-9
CCn1c(=O)n(CC)c2cc(S(=O)(=O)N3CCOCC3)ccc21
→ 1.4	-3
CC(C)=Cc1ccc(O)cc1
→ .	-20
Cc1[nH]c(=O)c(C#N)cc1-c1csc(-c2ccccc2)n1
→ 1.6	.
CC(C(=O)OCc1nnc(-c2ccccc2)o1)N1C(=O)c2ccccc2C1=O (stereo not drawn)
→ .	-5
CCCS(=O)(=O)N1CCCC(C(=O)NC)C1 (stereo not drawn)
→ 1.9	15
CCOc1ccc(/C=C/C(=O)N(C)Cc2ccccc2)cc1OC
→ .	1
COc1ccc(NC2=NCCC2)cc1
→ .	2&-4
O=C(c1ccco1)N1CCN(C(=O)C(c2ccccc2)N2Cc3ccccc3C2=O)CC1 (stereo not drawn)
→ .	-7
CCN(CC)c1ccc(NC(=O)CNc2ccc(F)cc2F)cc1
→ .	19
CCN(CC)c1ccc(C(=O)OCc2c(C)noc2C)cc1
→ .	18

# (next part)
# Every second line gives: MgrA-DNA mod	Sa helicase inh
O=C1NC(=S)N/C1=C\c1c(F)cccc1Cl
→ -1.2	.
CCOC(=O)c1sc(C)c2c(=O)[nH]nnc12
→ .	14
O=C(CSc1nc2c(sc(=S)n2-c2ccccc2)c(=O)n1Cc1ccco1)NC1CCCCC1
→ .	13
CNC(=S)NN=C1CCCCC1
→ -0.2	.
O=C(OCC(=O)N1CCCCC1)c1ccccc1SCC(=O)N1CCCCC1
→ .	16
CSc1sc(SC)c(COC(C)=O)c1COC(C)=O
→ 0.8	-6
Cc1ccc2c(c1)c1c3n2CC(O)CN=C3CCC1 (stereo not drawn)
→ .	20
Cc1nnc(SCC(=O)N(C)C2CCCCC2)s1
→ .	-10
c1ccc2c(c1)CSC(=NCc1ccncc1)N2
→ -3.9	.
COc1ccc(OC)c(CCNC(=O)CCc2nc3ncccc3c(=O)n2Cc2ccccc2)c1
→ -0.3	-4
CC1CCC(C(C)C)C(OCC(O)C[N+]2(C)CCCCC2)C1 (stereo not drawn)
→ 1.8	8
O=C(O)CCc1c(C(=O)O)[nH]c2ccccc12
→ .	16
Cc1ccc(CSc2nc(C(=O)O)ccc2C#N)cc1
→ 8.7	14
